Bioassay records as filed in PubChem.
SMN2 splice enh: enhancers of SMN2 splice variant expression. Potency, µM (top dose mostly 46.1 µM), for inactives: top-dose activity change, positive = activation, usual class: activators. HEK293 SMN2-luciferase splicing reporter, luminescence, 30-36 h. hit rate 2.8% among 210,000; also: % of control where 0% means no effect; nearly all actives have a fitted effect of over 55% in size
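qHTS luciferase splicing reporter: luminescence rises when SMN2 exon 7 is included in transfected HEK293 cells. Compound exposure lasted 30-36 h at 37C, with 4.5 mM final sodium butyrate as control, followed by a ONE-Glo read.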
Tau fibril ThT: blocks human tau fibril formation measured by thioflavin T; P10636; recombinant tau K18 P301L (four-repeat tau fragment), heparin-induced fibrillization, ThT fluorescence; Potency, µM (series often up to 57.4 µM), inactives show at the highest dose activity, negative = inhibition, actives largely listed as inhibitors; hit rate 2.1% among 270,000; AID 1460; also: % is scaled to controls: 0 for no effect and ±100 for the full control effect; nearly all actives have a fitted effect of over 55% in size
Target sequence (P10636 561-689 P618L limits assumed): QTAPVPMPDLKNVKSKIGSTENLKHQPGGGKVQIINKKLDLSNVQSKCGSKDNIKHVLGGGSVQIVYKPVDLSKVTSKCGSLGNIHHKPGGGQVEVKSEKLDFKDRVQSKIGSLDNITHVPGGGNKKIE
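In this qHTS, human K18 P301L tau is incubated with compound and heparin for 6 hr at 37 C, and Thioflavin T fluorescence then reports fibril load.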
Luc counter: blocks Kinase-Glo luciferase, a counter-screen artifact | Q27757 | Kinase-Glo luciferase, ATP luminescence, 8 min | Potency, µM (doses to about 38.3 µM), without a hit: top-dose activity change, negative = inhibition, most hits filed as inhibitors | hit rate 0.28% among 200,000 | AID 1379; also: % is scaled to controls: 0 for no effect and ±100 for the full control effect; nearly all actives have a fitted effect of over 60% in size
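Kinase-Glo luciferase light output from ATP and luciferin was measured with 10 uM ATP, within the enzyme's linear range. Buffer: 50 mM imidazole pH 7.2, 50 mM KCl, 7 mM MgCl2, 0.01% Tween 20, 0.05% BSA; luminescence read after 8 min at ambient temperature.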
RECQ1 helicase: blocks DNA unwinding by human RECQ1; P46063; RECQ1 DNA unwinding, red fluorescence kinetic read; Potency, µM (doses to about 57.3 µM), for the others: top-dose activity, negative = inhibition, usual class: inhibitors; hit rate 0.54% among 240,000;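 also: plate controls were vehicle for no effect and no enzyme for full effect; nearly all actives have a fitted effect of over 30% in size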
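50 nM RECQ1T1 preincubated 15 min with compound in Tris pH 8.0 buffer with MgCl2, DTT, Tween-20 and 2.5 ug/ml poly(dI-dC); started with 200 nM TAMRA/BHQ-2 forked duplex and 2 mM ATP. Unwinding read as fluorescence (525/598 nm), two reads 2 h apart.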
Lamin A splicing: modulators of lamin A splicing. HeLa LMNA splicing GFP/RFP minigene ratio, 48 h. Potency, µM (titrated, usually from 46.1 µM), for the others: at the top dose ratio change, negative = inhibition, usual class: inhibitors. hit rate 0.01% among 200,000. AID 1487; active = well fitted inhibition curve with a large enough effect in the signal ratio, with a control signal flat, not every such curve was filed as active; inconclusive = small, poorly fitted or top-dose-only effect, or effect the other way, or a change in a side signal; the % refers to the signal ratio; also: % is scaled to controls: 0 for no effect and ±100 for the full control effect
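S3 HeLa cells stably expressing lamin A-EGFP splicing minigene plus DsRed2, 600 cells/well, 48 h compound exposure at 37C. Laser-scanning cytometry; analysed as GFP (500-530 nm)/RFP (575-640 nm) total intensity ratio; 0.5% DMSO vehicle.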
JMJD2E inh: blocks human JMJD2E demethylase activity. B2RXH2. JMJD2E catalytic domain, FDH-coupled NADH fluorescence (FDH is formaldehyde dehydrogenase). Potency, µM (titrated, usually from 57.1 µM), without a hit: at the highest dose activity change, negative = inhibition, most hits filed as inhibitors. hit rate 1.6% among 230,000. AID 2147; active = well fitted inhibition curve with a large enough effect, not every such curve was filed as active; inconclusive = small, poorly fitted or top-dose-only effect, or another doubt; inactive = no such curve, though single readings can be large or run the other way;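 also: 0% = wells with enzyme and -100% = buffer wells without enzyme; nearly all actives have a fitted effect of over 50% in size; many of its hits are not listed in these tables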
L3MBTL1 inh: L3MBTL1 (human) inhibition; Q9Y468; AlphaScreen L3MBTL1–H3K9me1 peptide binding; Potency, µM (top dose mostly 57.1 µM), without a hit: top-dose activity, negative = inhibition, usual class: inhibitors; hit rate 0.66% among 230,000; AID 485360; also: % is scaled to controls: 0 for no effect and ±100 for the full control effect; nearly all actives have a fitted effect of over 60% in size
Target sequence (Q9Y468 whole entry, looked up): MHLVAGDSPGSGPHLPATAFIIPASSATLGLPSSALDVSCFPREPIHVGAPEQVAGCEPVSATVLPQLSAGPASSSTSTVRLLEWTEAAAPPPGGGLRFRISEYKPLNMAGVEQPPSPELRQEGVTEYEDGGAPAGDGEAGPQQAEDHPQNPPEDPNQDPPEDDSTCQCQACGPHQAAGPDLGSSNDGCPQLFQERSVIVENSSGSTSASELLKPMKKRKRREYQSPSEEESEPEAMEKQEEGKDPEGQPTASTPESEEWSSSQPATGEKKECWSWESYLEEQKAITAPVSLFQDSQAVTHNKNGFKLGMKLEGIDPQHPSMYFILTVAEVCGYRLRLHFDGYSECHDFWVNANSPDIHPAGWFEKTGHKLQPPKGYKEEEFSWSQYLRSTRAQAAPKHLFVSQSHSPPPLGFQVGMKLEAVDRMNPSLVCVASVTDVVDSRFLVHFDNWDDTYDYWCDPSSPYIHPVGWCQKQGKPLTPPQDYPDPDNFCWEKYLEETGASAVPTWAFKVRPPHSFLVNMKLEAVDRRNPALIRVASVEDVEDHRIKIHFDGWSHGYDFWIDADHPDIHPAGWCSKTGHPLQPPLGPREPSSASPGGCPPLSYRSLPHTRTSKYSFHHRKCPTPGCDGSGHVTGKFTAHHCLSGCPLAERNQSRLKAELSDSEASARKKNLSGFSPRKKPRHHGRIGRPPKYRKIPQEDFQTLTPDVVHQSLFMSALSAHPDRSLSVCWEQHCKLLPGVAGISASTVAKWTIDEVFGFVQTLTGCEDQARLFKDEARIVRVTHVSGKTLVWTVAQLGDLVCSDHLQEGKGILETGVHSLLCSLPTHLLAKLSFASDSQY
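First, the protein-peptide complex forms for 30 min at room temperature (L3MBTL1 50 nM, biotinylated H3K9me1 peptide 75 nM). Next, compounds are pin-transferred and incubated 30 min. Finally, AlphaScreen beads are added and read after 30 min.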
* hit, by the source's call; i = inactive; u = inconclusive; x = no result given; & = joins results of further samples; [ ] = remark or other dose. Unless noted, calls follow the shape of the dose curve; as a rule, active = well fitted curve in the direction sought with a large enough effect; inconclusive = small, poorly fitted or top-dose-only effect, or another doubt; inactive = no such curve, though single readings can be large; an effect the other way counts as inactive or inconclusive. Potency is read from the fitted curve at half-maximal effect.

SMILES	SMN2 splice enh	Tau fibril ThT	Luc counter	RECQ1 helicase	Lamin A splicing	JMJD2E inh	L3MBTL1 inh
O=C(CSc1nnc(CCCOc2ccc(Cl)cc2Cl)o1)Nc1ccc(C(=O)O)cc1	8.7%	u	2.1%	-0.3%	10.1%	10.3%	3.4%
Cc1c(C#N)c2ccccc2n1CC(=O)NCc1ccccc1	-6.2%	1.8%	10.8%	-2.8%	-4.5%	0.7%	-9.9%
CC(C)n1c(=O)c2c(O)cc(=O)oc2c2ccccc21	-11.3%	-11.2%	-1.7%	-1.3%	16.5%	-20.1%	-13.0%
O=[N+]([O-])c1cc(S(=O)(=O)N2CCCCC2)ccc1NCCN1CCOCC1	-13.7%	-12.1%	4.4%	-1.5%	8.3%[46 µM]	-16.7%	-9.1%
CCOC(=O)c1sc(NC(=S)NC(=O)C2CCCC2)cc1C	x	-2.8%	x	-6.0%	-14.5%	-9.8%	u
Cc1ccc(OCc2nnc(NC(=O)OCC(C)C)s2)cc1	20.4%	0.6%	-1.5%	9.8%	1.3%	9.7%	x
COC(=O)C1C(=O)C2=C(CC1C)Nc1ccccc1NC2c1ccc(C)s1 (stereo unspecified)	x	-2.8%	-7.3%	i	17.1%[46 µM]	20.8%	0.8%
O=c1c2ccccc2ncn1CCOCCOc1cccc(Br)c1	-13.4%	0.6%	0.2%	0.6%	10.5%	2.7%	5.5%
CCCOC(=O)c1cccc(NC(=O)c2cccnc2)c1	-0.5%	2.2%	-7.3%	-3.8%	-0.6%	-0.1%	-0.7%
CCn1nc(CC(=O)Nc2nnc(CC(=O)N3CCCC3)s2)c2ccccc2c1=O	-12.4%	-8.6%	-2.5%	-9.8%	4.0%	-4.1%	u
O=C(/C=C/c1ccco1)OCC1CCCN2CCCCC12 (stereo unspecified)	8.3%	-4.4%	0.6%	i	u	-10.0%	11.2%
Cc1nonc1CN(C)C(=O)CC1C(=O)NCCN1Cc1cccc(C(F)(F)F)c1 (stereo unspecified)	x	-10.7%	-2.3%	-9.1%	u	u	7.3%
COc1ccc2c(c1)CC[C@@H]1[C@@H]2CC[C@]2(C)C(=O)CC[C@@H]12	-41.0%[inhibitor]	u	1.1%	u	u	10.7%	10.5%
CC1(C)Nc2ccc(O)cc2-c2c1ssc2=S	-9.5%	11.2µM*	-2.8%	u	-0.1%	-12.8%	u
O=C(Nc1ccccc1C(=O)N/N=C/c1ccco1)c1ccc(F)cc1	13.9%	-12.7%	7.08µM*	2.1%	-6.1%	5.0%	-14.4%
Cc1cc(C)nc(N2CCCC(C(=O)NCCc3cccc(F)c3)C2)n1 (stereo unspecified)	23.6%	0.4%	3.3%	-1.6%	2.5%	-3.3%	x
Cc1cc(=O)[nH]c(NN=C2C3CC4CC(C3)CC2C4)n1	x	-7.7%	x	-6.0%	-2.5%[46 µM]	-12.2%	6.4%
COc1ccc([N+](=O)[O-])cc1NC(=O)COC(=O)Cc1cc(OC)c(OC)c(OC)c1	-3.9%	10.7%	-0.2%	0.6%	-2.7%	0.0%	3.8%
COc1cc(/C=C2\C(=O)N(C)C(=S)N2C)ccc1O	6.5%	u	0.4%	-12.8%	1.1%	5.0%	4.1%
OCC1(Cc2ccccc2C(F)(F)F)CCN(Cc2ccccc2)CC1	x	-8.4%	2.8%	i	x	-8.1%	1.6%
CC1CCCC(NC(=O)COC(=O)CSc2ccc3ccccc3c2)C1C (stereo unspecified)	5.0%	u	2.0%	-17.0%	u	-2.1%	10.3%
COc1cc(=O)n(C)c2c(OCC(O)C(C)(C)O)cccc12 (stereo unspecified)	16.4%	-0.2%&0.1%	-7.0%&2.7%	-13.2%	-17.6%	-14.9%&-10.2%	6.7%
COc1ccc(C#CC2C=CC(Oc3cc(C)cc(C)c3)C(CO)O2)cc1 (stereo unspecified)	x	-6.2%[11.5 µM]	x	6.2%[11.5 µM]	x	x	x
CC(=O)Nc1ccc(S(=O)(=O)Nc2cccc(-c3csc(C)n3)c2)cc1	x	-4.8%	-0.3%	2.4%	-3.6%[46 µM]	5.1%	1.4%
Cc1ccc(SCc2ccc(C(=O)NCc3cccnc3)cc2)cc1	-69.0%[inhibitor]	3.2%	-2.2%	8.4%	u	1.6%	-14.0%
Cc1ccccc1-n1c(SCC(=O)c2c(N)n(C)c(=O)n(C)c2=O)nnc1-c1cccnc1	-14.0%	0.5%	2.4%	-2.9%	u	-3.4%	0.9%
CSc1ccc(CN(C)CC(=O)Nc2ccc(C)cc2Br)cc1	-15.7%	u	3.7%	-7.3%	u	-3.0%	31.2%[activator]
O=C(NCc1ccncc1)C(=O)Nc1ccc2c(c1)OCO2	-1.5%	-2.2%	-1.4%	-3.1%	x	-1.0%	-2.6%
CCCOC(=O)C1=C(C)NC2=C(C(=O)CCC2)C1c1cccs1 (stereo unspecified)	-9.8%	-3.8%	2.7%	-15.1%	10.4%	u	0.9%
O=C(CCC1CCCN(C(=O)c2ccc3[nH]ccc3c2)C1)N1CCN(c2ccccn2)CC1 (stereo unspecified)	x	-4.2%	-0.9%	-7.4%	30.0%[46 µM]	u	0.1%
CC(Oc1ccc(Cl)cc1Cl)C(=O)N(C)c1ccccc1 (stereo unspecified)	-1.2%	-1.8%	0.0%	i	u	3.1%	14.4%
CCOc1ccccc1C(=O)N1CCN(C(c2ccccc2)c2ccccc2)CC1	x	-12.4%	x	-5.6%	u	-3.9%	-4.3%
O=C(CCNS(=O)(=O)c1ccc(Br)s1)Nc1ccc(Cl)cc1	13.8%	7.0%	-4.5%	i	-13.1%	1.4%	x
COc1ccc(/C=N/Nc2nccnc2Cl)cc1	14.1µM*	u	7.08µM*	-5.5%	-2.2%	-2.5%	x
CCOC(=O)C1(CCOc2ccccc2)CCN(C(=O)c2ccc(-n3cccn3)cc2)CC1	x	-17.4%	x	-19.8%	x	7.1%	1.4%
CCCn1c(C)cc(C(=O)CSc2nc3ccccc3c(=O)n2Cc2ccco2)c1C	u	3.6%	-0.9%	6.2%	u	-3.3%	-4.5%
O=C(O)C1CCCCC1C(=O)NCc1ccccn1 (stereo unspecified)	3.8%	-5.6%	1.2%	18.7%	24.1%[46 µM]	-10.0%	-11.1%
COC(=O)c1c(C(=O)OC)c2oc3ccccc3n2c1Cl	-13.2%	-14.2%	-3.0%	-6.5%	-2.3%	8.1%	x
CCCN1CCC(NC(=O)CCc2nnc(-c3ccccc3)o2)CC1	x	-4.1%	0.3%	i	x	-2.9%	1.2%
O=C1N/C(=N\c2ccccn2)SC1Cc1ccccc1Cl (stereo unspecified)	x	-1.5%	x	-4.7%	x	3.8%	u
Cc1ccccc1NC1=C(Cl)C(=O)OC1OC(=O)c1ccco1 (stereo unspecified)	9.6%	u	-1.1%	i	-16.8%	3.6%	x
CC(O)c1cccc(NC(=O)CCC(=O)O)c1 (stereo unspecified)	-2.1%	-8.7%	-6.5%	-5.2%	0.1%	-2.9%	-1.2%
Cc1cc(NC(=O)Cc2ccccc2)nc2c1c(=O)oc1ccccc12	-31.4%[inhibitor]	-9.2%	3.3%	-1.4%	u	-6.3%	-9.2%
Cc1ccc(C(=O)Nc2ccccc2C(=O)NCc2ccccc2)cc1	23.5%	-4.9%	-0.6%	-0.8%	-0.4%	41.8%[activator]	14.1%
c1ccc(CCN(Cc2ccccc2)Cc2nc(C3CC3)no2)cc1	-5.8%	-3.8%	0.3%	i	x	2.2%	159.3%[activator]
CCOc1ccc(CCNC(=O)COc2cc(=O)n(C)c3ccccc23)cc1OCC	15.6%	-3.6%	-4.9%	7.9%	5.1%[46 µM]	1.6%	x
O=C(NC(NC(=S)Nc1ccccc1O)C(Cl)(Cl)Cl)c1ccco1 (stereo unspecified)	-9.2%	-10.8%	1.8%	-2.2%	u	-0.7%	9.8%
O=C(O)/C=C/c1ccc([N+](=O)[O-])o1	5.5%	-7.5%	7.1%	i	-12.7%[46 µM]	-2.2%	u

Another view of some results above:
The line under a structure holds: SMN2 splice enh | Tau fibril ThT | Luc counter | RECQ1 helicase | Lamin A splicing | JMJD2E inh | L3MBTL1 inh
CCCN1CCC(NC(=O)CCc2nnc(-c3ccccc3)o2)CC1
→ x | -4.1% | 0.3% | i | x | -2.9% | 1.2%
O=C1N/C(=N\c2ccccn2)SC1Cc1ccccc1Cl (stereo unspecified)
→ x | -1.5% | x | -4.7% | x | 3.8% | u
Cc1ccccc1NC1=C(Cl)C(=O)OC1OC(=O)c1ccco1 (stereo unspecified)
→ 9.6% | u | -1.1% | i | -16.8% | 3.6% | x
CC(O)c1cccc(NC(=O)CCC(=O)O)c1 (stereo unspecified)
→ -2.1% | -8.7% | -6.5% | -5.2% | 0.1% | -2.9% | -1.2%
Cc1cc(NC(=O)Cc2ccccc2)nc2c1c(=O)oc1ccccc12
→ -31.4%[inhibitor] | -9.2% | 3.3% | -1.4% | u | -6.3% | -9.2%
Cc1ccc(C(=O)Nc2ccccc2C(=O)NCc2ccccc2)cc1
→ 23.5% | -4.9% | -0.6% | -0.8% | -0.4% | 41.8%[activator] | 14.1%
c1ccc(CCN(Cc2ccccc2)Cc2nc(C3CC3)no2)cc1
→ -5.8% | -3.8% | 0.3% | i | x | 2.2% | 159.3%[activator]
CCOc1ccc(CCNC(=O)COc2cc(=O)n(C)c3ccccc23)cc1OCC
→ 15.6% | -3.6% | -4.9% | 7.9% | 5.1%[46 µM] | 1.6% | x

Next section.
SMILES	SMN2 splice enh	Tau fibril ThT	Luc counter	RECQ1 helicase	Lamin A splicing	JMJD2E inh	L3MBTL1 inh
COC(=O)c1ccccc1NS(=O)(=O)c1ccc(F)cc1	1.4%	-1.4%	0.4%	-7.3%	-3.4%	0.6%	15.1%
COc1ccc(NC(=O)c2ccccc2S(=O)c2ccccc2C#N)cc1 (stereo unspecified)	4.3%	-0.8%	2.1%	i	-12.8%[46 µM]	5.6%	4.8%
O=C(Nc1ccc(S(=O)(=O)N2CCCCC2)cc1)c1ccncc1	x	-7.9%	x	-6.2%	u	-1.4%	4.9%
CN(C)Cc1ccccc1-c1nc(N2CCOCC2)c2ccccc2n1	-33.6%[inhibitor]	-5.1%	0.9%	-4.8%	16.4%	10.0%	x
COC(=O)C1=C(CSc2nncn2C)NC(=O)NC1c1ccc(F)cc1 (stereo unspecified)	8.4%	3.9%	-4.8%	i	6.4%	2.0%	-0.8%

The list is partial; count on the stated rates, not on these rows.
